Mtb growth: M. tuberculosis H37Rv growth inhibitors, H37Rv strain (AID 1626); M. tuberculosis H37Rv growth inhibition; higher % means a stronger effect; one-dose inhibition, % at 10 µM; IC50 in µM for titrated hits; 220,000 tested, 0.95% active;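 active = confirmed in a dose series; inconclusive = inhibition above 80% but not taken into the dose series; inactive = below 80% or under 30% at every dose of the series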;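 also: bacteria incubated seven days before Alamar blue readout; 0% = bacteria only wells and 100% = bacteria with antibiotic wells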
RecA intein inh: Mtb RecA intein splicing inhibitors, primary screen, biochemical, fluorescence, HTS | Protein RecA (Mycobacterium tuberculosis (strain ATCC 25618 / H37Rv)), P9WHJ3 | cell-free RecA intein splicing | inhibition, %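 (about 9 µM by stock and volumes)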 | 290,000 tested, 0.75% active; in the data active = inhibition above about 30%; inconclusive = no clear call, values can overlap the other calls;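 also: 0% = vehicle wells and 100% = reference inhibitor control wells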
Target sequence (P9WHJ3 whole entry, looked up): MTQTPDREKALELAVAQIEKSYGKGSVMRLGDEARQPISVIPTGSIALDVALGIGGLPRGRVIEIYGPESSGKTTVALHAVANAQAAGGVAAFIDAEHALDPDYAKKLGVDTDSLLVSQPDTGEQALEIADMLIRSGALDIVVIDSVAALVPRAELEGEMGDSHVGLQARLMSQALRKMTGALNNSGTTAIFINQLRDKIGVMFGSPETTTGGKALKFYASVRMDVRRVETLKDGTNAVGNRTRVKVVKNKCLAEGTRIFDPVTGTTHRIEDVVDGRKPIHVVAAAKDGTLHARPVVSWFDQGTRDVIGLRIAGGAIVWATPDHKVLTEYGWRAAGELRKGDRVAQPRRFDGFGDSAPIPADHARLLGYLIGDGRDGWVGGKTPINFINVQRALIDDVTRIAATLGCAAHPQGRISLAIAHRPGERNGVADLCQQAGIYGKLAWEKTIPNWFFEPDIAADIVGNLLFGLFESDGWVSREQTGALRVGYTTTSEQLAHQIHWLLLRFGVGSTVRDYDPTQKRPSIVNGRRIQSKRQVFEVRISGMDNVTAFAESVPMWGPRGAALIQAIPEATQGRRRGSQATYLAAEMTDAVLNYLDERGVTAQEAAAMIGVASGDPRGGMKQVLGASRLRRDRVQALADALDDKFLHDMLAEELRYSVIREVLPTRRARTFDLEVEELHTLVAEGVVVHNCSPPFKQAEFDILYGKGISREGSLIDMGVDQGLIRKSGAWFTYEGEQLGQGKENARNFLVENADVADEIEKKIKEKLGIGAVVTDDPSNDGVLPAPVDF
Mtb bLac sens: beta-lactam sensitization of Mtb H37Rv, H37Rv. M. tuberculosis H37Rv growth with meropenem, percent inhibition; hits of this screen are not shown here. inhibition, % at 25 µM. 330,000 tested, 0.27% active;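 active = about 74% or more and at least 40 points above the plate without the antibiotic, then above 30% in a dose series; inconclusive = first-round hits that could not be retested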;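 also: growth measured after seven days incubation then overnight dye step; 0% = bacteria only wells and 100% = bacteria with antibiotic; twin plates without the antibiotic show which effects depend on it; some results filed as inactive read as strong as hits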
YopH inh: YopH tyrosine phosphatase inhibitors, primary screen, biochemical, fluorescence Ex485/Em525. 140,000 tested, 0.16% active. AID 898, 2007. YopH tyrosine phosphatase [Yersinia enterocolitica]. inhibition, %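 (about 10 µM by stock and volumes)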;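 active = inhibition of 50% or more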;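 also: controls were vehicle for no effect and minimum signal wells for full effect; inactives centre near -20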
Arbovirus anti: antivirals against arbovirus infection, primary screen, cell-based, full library, 10K replicate subset. inhibition, % at 10 µM. arbovirus infection cell-based antiviral screen. 200,000 tested, 0.37% active. AID 1251, 2008;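 active = inhibition from about 30%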;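 also: bluetongue infection of BSR cells; cell survival read as ATP light after 72 h; 0% = infected wells without compound and 100% = uninfected wells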
* hit, by the source's call; u = inconclusive; x = not tested or not shown; & = joins results of further samples. Only part of the results is shown. The share of hits here may be higher or lower than overall.

mol | Mtb growth | RecA intein inh | Mtb bLac sens | YopH inh | Arbovirus anti
O=C(O)CCN1C(=O)C2C3CC(C2C1=O)C1C(c2ccccc2)c2sc(=O)n(-c4ccccc4)c2SC31 (stereo not drawn) | -1% | 2.0 | -2 | x | 14
CC(C)c1ccc(NC(=S)N(C)CCc2ccccn2)cc1 | -2% | 2.0 | 7 | x | 6
Cc1ccc(-c2ccccc2)n1-c1ccc(C(=O)O)cc1 | 6% | x | 9 | -26 | -4
CNC(=O)c1ccsc1NC(=O)C1CCN(S(=O)(=O)c2ccc(Cl)s2)CC1 | x | 6.7 | 0 | x | x
COc1ccc(OCC(=O)OC2CCCN(C)C2)cc1 (stereo not drawn) | -6% | 2.7 | -5 | x | x
FC(F)(F)c1nnc(Nc2ccc(Cl)cc2)s1 | -1% | 1.5 | -11 | x | x
Cc1ccc2cc3c(N)c4c(C)ccc(C)c4nc3nc2c1 | u | -1.7 | x | x | 3
C=CSc1sc(Cl)c(N(CC)CC)c1[N+](=O)[O-] | 2% | 3.3 | 1 | x | 17
COCc1cc(C)n(CC(=O)Nc2ccccc2OC)c(=O)c1C#N | 2% | -2.2 | 3 | -4 | 8
CCN(CC)C(=O)COc1ccc(-c2ccccc2)cc1 | 3% | -1.7 | -12 | -35 | -8
O=C(Cc1coc2ccc3ccccc3c12)N1CCN(c2ncccn2)CC1 | 2% | 7.2 | 30 | -23 | 4
C#CCOCCOCCOCCNc1nc(N2CCN(C(=O)[C@H](CCC(=O)O)n3cc(C(N)[C@H](C)CC)nn3)CC2)nc(N2CCN(C(=O)[C@H](Cc3cc4ccccc4[nH]3)n3cc(C(N)[C@H](C)CC)nn3)CC2)n1 (stereo partly drawn) | x | -0.3 | -13 | x | 1
C=C(C)c1cccc(C(C)(C)NC(=O)Nc2ccc(OC)nc2)c1 | x | 2.9 | 11 | x | x
N#Cc1ccc(C23CC4(C2)[C@H](CN(Cc2ccc(-c5ccccc5)cc2)[C@@H]4c2ccccc2)C3c2ccc(C(F)(F)F)cc2)cc1 (stereo partly drawn) | 4% | 3.7 | -6 | x | x
CCCC[n+]1ccn(-c2nc3ccccc3nc2[N-]S(=O)(=O)c2cccs2)c1 | 96% | -27 | 94 | x | x
COC(=O)C1C2CCC(C2)C1C(=O)OCC(=O)c1ccc(C)cc1 (stereo not drawn) | 3% | 1.5 | 8 | 0 | 3
Cn1c(SCC(=O)NNC(=S)Nc2ccccc2)nnc1-c1ccccc1 | -2% | -0.4 | -3 | x | x
O=C(NC(CC(=O)N1CCN(c2ccccc2)CC1)c1ccccc1)c1ccccc1Cl (stereo not drawn) | 0% | 2.9 | -2 | -12 | 0
CCOC(=O)CNS(=O)(=O)c1ccc(C)cc1 | -2% | 1.7 | 3 | -23 | -3
O=C(c1ccco1)N1CCN=C1SCc1cccc(F)c1 | -7% | x | -1 | -27 | 1
Cn1c(=O)c(=O)n(C)c2cc(S(=O)(=O)N3CCCC3C(=O)NCc3cccnc3)ccc21 (stereo not drawn) | -3% | -5.1 | -13 | x | x
O=C(Cc1cc(=O)[nH][nH]1)N/N=C/c1cccc(Cl)c1Cl | 1%&-9% | 94* | -2&-2 | -28 | 0&4
Clc1ccc(-n2c(SCc3nc4ccccc4[nH]3)nnc2-c2ccncc2)cc1 | 4% | -5.4 | -9 | -22 | 3
Cc1ccc(S(=O)(=O)/N=C(\N)c2ccc(Cl)cc2)cc1 | x | 0.2 | 10 | x | x
COC(=O)c1sccc1NC(=S)N1CCN(c2ccccc2F)CC1 | x | 3.2 | -1 | -21 | -2
COC(=O)c1cc(-c2cccc(OC)c2)n[nH]1 | 2% | 0.0 | 1 | -27 | 5
NS(=O)(=O)c1ccc(NC(=S)NCc2ccccc2Cl)cc1 | 0% | 2.1 | -4 | 20 | 2
COC(=O)C1=C(C)N(CCc2cc(OC)c(OC)c(OC)c2)C(=O)N[C@H]1c1ccccc1 | -17% | -1.8 | -8 | x | x
Cc1ccc(-c2csc(NC3OC(=O)c4ccccc43)n2)cc1 (stereo not drawn) | x | -0.9 | -2 | x | x
O=C(NC1CC1)C1=C[C@@H](c2c[nH]c3ccccc23)C[C@@H](OCCCCO)O1 | -3% | 14 | -6 | x | x
COc1nc(Oc2ccc(C(=O)OCC(N)=O)cc2)nc(N(C)C)n1 | -8% | -3.7 | 1 | -29 | 4
CCN(CC)C(=O)NCc1c(C)cc(C)cc1C | -10% | 1.1 | -5 | x | 12
COC(=O)c1sc(NC(=S)NC(=O)c2ccccc2C)nc1C | -2% | 0.8 | -2 | x | -1
CN(C)S(=O)(=O)c1cccc(NC(=O)c2n[nH]c(=O)c3ccccc23)c1 | -2% | x | -3 | x | 2
Cc1cccc2cc3c(NC(=O)c4ccccn4)nn(C)c3nc12 | 23% | -5.0 | 74 | -43 | -8
C/C(=N/NC(=S)Nc1ccccc1)c1ccc2c(c1)OCO2 | u | 2.2 | 97 | -23 | -7

Entries of single compounds as entered above. Values in the order: Mtb growth | RecA intein inh | Mtb bLac sens | YopH inh | Arbovirus anti
Record of Cc1cccc2cc3c(NC(=O)c4ccccn4)nn(C)c3nc12 → 23% | -5.0 | 74 | -43 | -8
Record of COC(=O)c1sccc1NC(=S)N1CCN(c2ccccc2F)CC1 → x | 3.2 | -1 | -21 | -2
Record of C/C(=N/NC(=S)Nc1ccccc1)c1ccc2c(c1)OCO2 → u | 2.2 | 97 | -23 | -7

Next part:
mol | Mtb growth | RecA intein inh | Mtb bLac sens | YopH inh | Arbovirus anti
C/C(=N\NC(=O)c1ccc(CN(C)S(=O)(=O)c2ccc(C)cc2)cc1)c1ccc(OC(F)F)cc1 | 0% | -6.3 | 1 | -20 | -21
COc1ccc(-c2nc(C=O)cs2)cc1 | 66% | 1.5 | 31 | x | x
O=C(Nc1ccc(C(=O)O)cc1)Nc1cccc2ccccc12 | x | 0.2 | -2 | x | x
CNc1ccc(SC#N)cc1 | 69% | -4.6 | -2 | x | -8
O/C(=C\c1ccc2ccccc2n1)c1ccncc1 | x | -4.3 | -6 | x | x
CCc1nnc(NC(=O)CSc2nc3ccccc3c(=O)n2CCCOC)s1 | -2% | 1.7 | -8 | -23 | -4
O=C(NC(=S)Nc1ccc(S(=O)(=O)Nc2nccs2)cc1)C1CC1 | -8% | -3.4 | 18 | x | x
O=C(NNC(=O)c1csc(-c2cccnc2)n1)c1ccccc1 | -7% | -0.1 | -5 | x | x
Cc1cc(C(=O)N=Nc2c(O)n(C(C)C)c3ccccc23)n[nH]1 | 1% | 9.9 | 63 | -19 | 3
CCc1cc(=O)[nH]c(SCC(=O)N2CCC(Cc3ccccc3)CC2)n1 | x | 5.0 | 3 | x | x
CN(CC(=O)Nc1ccccc1Cl)C(=O)c1ccc(COc2ccccc2)cc1 | x | 6.9 | -1 | x | x
O=C(O)CC1NC(=S)N(c2ccccc2)C1=O (stereo not drawn) | -7% | 0.4 | 10 | -127 | -3
CC1CCN(C(=S)c2cccc(O)c2)CC1 | -4% | -0.7 | 0 | x | -5
CCOC(=O)c1cnc2ccc(OCC)cc2c1N1CCN(C)CC1 | -4% | 1.7 | -8 | -38 | 16
O=C(c1ccc(S(=O)(=O)N2CCCC2)cc1)N1CCN(c2cccc(Cl)c2)CC1 | x | 3.9 | u | x | x
O=C(COc1ccccc1)Nc1ccc2[nH]ncc2c1 | x | 1.6 | 0 | x | x
CCOC(=O)CNCCC(=O)c1ccc(Br)cc1 | 51% | 7.5 | 100 | -29 | 2
COc1ccc2nc(-c3ccc(F)cc3)sc2c1 | 3% | 4.5 | 40 | x | x
Cc1ccc(NC(=O)COc2ccc(C(=O)NCCc3ccccc3)cc2)cc1 | 7% | 4.7 | u | -3 | x
O=C1C(c2ccccc2)=C(N2CC2)c2ccccc21 | 7% | 6.4 | 10 | -1 | -5
O=C(NCCc1ccccc1)c1cc(-c2ccc3c(c2)OCO3)on1 | 0% | -2.8 | 2 | -50 | -27
COc1ccc(-c2ccc3c(n2)sc2c(=O)[nH]c(=O)[nH]c23)cc1OC | 3% | x | x | x | -1
CCn1c(SC2CCOC2=O)nnc1-c1ccc(Cl)cc1 (stereo not drawn) | -4% | 0.8 | -7 | x | -3
COc1cc(/C=C2/C(=N)N3N=C(CC(=O)N4CCOCC4)SC3=NC2=O)ccc1OCc1ccc(F)cc1 | x | 3.0 | -4 | x | x
COc1ccc(-c2noc(N3CCC(C(=O)Nc4cccc(OC)c4)CC3)n2)cc1 | x | 2.0 | 11 | x | x
CCn1c(SCC(=O)NCCOC)nc2sc(C)c(C)c2c1=O | -5% | 0.6 | x | -28 | -8
COc1ccc(S(=O)(=O)N2CCCC2CNC(=O)C(=O)NCc2ccc(C)cc2)cc1 (stereo not drawn) | x | -0.5 | 0 | x | x
Cc1cccc(NC(=O)CCC(=O)N/N=C/c2ccc(O)cc2O)c1 | x | -4.3 | 4 | x | x
Cc1ccccc1-c1nc(CS(=O)(=O)CC(=O)N2CCOCC2)c(C)o1 | x | 1.1 | 2 | x | x
O=C(Nc1ccc(N2CCOCC2)cc1)c1ccc([N+](=O)[O-])o1 | x | -2.1 | 100 | x | x
CCCC(=O)Nc1nnc(-c2cccc(OCC)c2)s1 | 11% | -3.2 | 15 | -38 | -2
COC(=O)c1ccccc1C(=O)N1CCCC(C(=O)c2cc(F)ccc2F)C1 (stereo not drawn) | 7% | 3.0 | 6 | x | 3
O=C(Nc1cc(C(F)(F)F)ccc1Cl)c1cc(C2CC2)on1 | 2% | -1.7 | 7 | -17 | -1
Cc1c(Cl)cccc1NC(=S)N1CCN(c2ncccn2)CC1 | -9% | -0.1 | -1 | 14 | -13
COc1ccc(NC(=O)CCNS(=O)(=O)c2cccc(C(C)=O)c2)cc1S(N)(=O)=O | x | -2.2 | -5 | x | x
Fc1cccc(Oc2nc3ccccc3n3cccc23)c1 | 1% | 0.5 | -5 | -31 | 0
CC(C)CNC(=O)c1c2c(nc3ccccc13)-c1ccccc1CC2 | 0% | -4.2 | 2 | 0 | -1
Cc1cc(C)cc(NC(=O)c2ccc(S(=O)(=O)N(C)CC3CCCO3)cc2)c1 (stereo not drawn) | x | 1.7 | -10 | x | x
O=C(CCc1ccccc1)Nc1ncc2c(n1)CCCC2=O | -5% | 0.0 | -21 | 5 | 5
Clc1ccc(N2CCCCCC2)nn1 | -3% | -1.5 | u | -30 | -4
O=C(Nc1ccc(N2CCN(C(=O)c3cccs3)CC2)cc1)c1ccccc1F | x | -0.2 | 5 | x | x
CCO/C=C1\C(=O)N(c2ccc(OCC)cc2)C(=O)c2ccccc21 | 71% | x | 17 | x | -1
O=C(CSC1=NNC(c2ccccn2)S1)Nc1cccc(Cl)c1 (stereo not drawn) | -6% | -0.5 | 63 | x | x
c1ccc(C2=Nc3c(ccc4ccccc34)C(c3ccncc3)=NN2)cc1 | -1% | 7.4 | 11 | x | -16
CN(C(=O)c1cccn(Cc2ccccc2)c1=O)c1ccccc1 | -8% | -8.6 | 2 | x | -7
COc1ccc(-c2cc(C3CCN(CC(O)C(F)(F)F)CC3)[nH]n2)cc1 (stereo not drawn) | x | -0.3 | 11 | x | x
O=C(NCC1CCCO1)c1cccc(S(=O)(=O)NCc2ccccc2)c1 (stereo not drawn) | 0% | 0.5 | -5 | x | 2
Cc1[nH]n(-c2ccccc2)c(=O)c1C=Nc1ccc(S(=O)(=O)N(C)C)cc1 | 14% | 2.4 | 4 | -20 | 1
CN(C)S(=O)(=O)c1ccccc1C#N | -3% | -1.4 | 5 | 3 | 9
Cc1ccc(C(=O)N2CCN(c3cccc(C)c3C)CC2)o1 | x | 6.2 | -12 | x | x
O=C(NCc1ccccc1F)c1cc(=O)[nH]c2ccccc12 | x | -4.2 | 6 | x | x
O=C(Nc1ccc(Oc2ccc3ccccc3c2)cc1)c1ccco1 | -4% | 14 | 59 | 7 | 7
O=C1C(=O)N(Cc2cccnc2)C(c2ccc(Br)cc2)/C1=C(\O)c1ccc2c(c1)OCCO2 (stereo not drawn) | x | 0.7 | -1 | x | x
CSc1ccccc1NC(=O)COc1ccccc1Cl | 5% | 4.8 | 91 | -15 | -4
Cc1ccc(NC(=O)c2cc3ccccc3o2)cc1 | x | -1.5 | 64 | x | x
Cc1cc(C)cc(NC(=O)CSc2nc(=O)n(CCCN3CCOCC3)c3c2CCCC3)c1 | x | 0.8 | -6 | x | x
CCCn1c(=O)c2ccccc2n2c(SCC(=O)Nc3cc(C)on3)nnc12 | -10% | -3.1 | -1 | x | x
COc1cc(NC(=S)N2CCc3ccccc3C2)cc(OC)c1 | 8% | 0.6 | 5 | x | -2
CS(=O)(=O)N1CCC(C(=O)N2CCN(c3ccc(F)cc3)CC2)CC1 | -15% | 0.0 | -4 | x | -2
CCCCOc1ccc(NC(=O)c2cnc(C)cn2)cc1 | 22µM* | 1.9 | 96 | -1 | -16
O=C(NCCCCc1ccccc1)C1CC(c2cccc(F)c2)=NO1 (stereo not drawn) | -10% | 0.5 | 2 | x | x
CC1CN(S(=O)(=O)c2cccc3nsnc23)CC(C)O1 (stereo not drawn) | -5% | 1.5 | -3 | -14 | 2
